Vaccinia mCherry: qHTS for Stage-Specific Inhibitors of Vaccinia Orthopoxvirus: mCherry Reporter Primary qHTS. Vaccinia virus mCherry reporter infection, fluorescence; about a quarter of the inactives have no number. Potency, µM (highest dose often 36.5 µM), without a hit: top-dose activity change, negative = inhibition, actives largely listed as inhibitors. 310,000 compounds, 0.63% hits. AID 720579, 2013; active = well fitted inhibition curve with a large enough effect; inconclusive = small, poorly fitted or top-dose-only effect; inactive = no such curve, though single readings can be large or run the other way; tested in A549 cells; note: nearly all actives have a fitted effect of over 35% in size; inactives centre near -10
Vaccinia Venus: qHTS for Stage-Specific Inhibitors of Vaccinia Orthopoxvirus: Venus Reporter Primary qHTS; 330,000 compounds, 0.46% hits; Vaccinia virus Venus reporter expression, fluorescence; Potency, µM (series often up to 36.5 µM), without a hit: at the top dose activity change, negative = inhibition, actives largely listed as inhibitors; AID 720580, 2013; active means well fitted inhibition curve with a large enough effect; inconclusive means small, poorly fitted or top-dose-only effect; inactive means no such curve, though single readings can be large or run the other way; tested in A549 cells; note: nearly all actives have a fitted effect of over 30% in size; inactives centre near -10
Numbers without * were called inactive; i = inactive; u = inconclusive; x = not tested or not shown; & = joins results of further samples; [ ] = dose if it differs, or a comment. % is set by controls: 0 for no effect and ±100 for the full control effect; potency is the fitted concentration of half-maximal effect.

Start of the data: the first 5 entries (preview)
no.	Molecule	Vaccinia mCherry	Vaccinia Venus
1	COc1ccc(N2CCN(C(=O)CSc3n[nH]c(-c4ccccc4)n3)CC2)cc1	-2%	-8%
2	CCOc1ccc(N2C(=O)CC(SCc3nc4ccccc4[nH]3)C2=O)cc1 (configuration not stated)	3%	3%
3	Cc1cc(C)c2c(N)c(C(=O)NCC3CCCCC3)sc2n1	x	u
4	COC(=O)C1=C(c2ccc(OC(F)(F)F)cc2)C[C@@H]2CC[C@H]1N2C(=O)N1CCOCC1	-2%	-18%
5	Cc1ccc(CNC(=O)c2ccc3c(=O)c(O)c(-c4ccc(C)cc4)[nH]c3c2)cc1	u	u

The whole of this part, from the first entry:
no.	Molecule	Vaccinia mCherry	Vaccinia Venus
1	COc1ccc(N2CCN(C(=O)CSc3n[nH]c(-c4ccccc4)n3)CC2)cc1	-2%	-8%
2	CCOc1ccc(N2C(=O)CC(SCc3nc4ccccc4[nH]3)C2=O)cc1 (configuration not stated)	3%	3%
3	Cc1cc(C)c2c(N)c(C(=O)NCC3CCCCC3)sc2n1	x	u
4	COC(=O)C1=C(c2ccc(OC(F)(F)F)cc2)C[C@@H]2CC[C@H]1N2C(=O)N1CCOCC1	-2%	-18%
5	Cc1ccc(CNC(=O)c2ccc3c(=O)c(O)c(-c4ccc(C)cc4)[nH]c3c2)cc1	u	u
6	O=C(COc1ccccc1F)Nc1ccc(Cl)c(-c2nc3ccccc3[nH]2)c1	6%	-18%
7	CCOc1ccc(NC(=O)N(Cc2c[nH]c3ccccc23)C2CCCCC2)cc1	-11%	-10%
8	Cc1cc(-c2nnc3n2N=C(c2ccc(-c4ccccc4)cc2)CS3)n[nH]1	11µM*	u
9	O=C(COC(=O)C1CCC1)NCc1ccccc1	-1%	1%
10	CCOc1ccc(/C=N/NC(=O)C2(O)c3ccccc3-c3ccccc32)cc1	-4%	2%
11	O=C(OCC(=O)N1CCCCC1)c1cc(NS(=O)(=O)c2ccc(Cl)c([N+](=O)[O-])c2)ccc1O	-19%	-9%
12	CC(C)c1nnc(NC(=O)C2c3ccccc3Oc3ccccc32)s1	-17%	-10%
13	Cc1ccc(NC(=O)COC(=O)Cc2ccccc2)cc1S(=O)(=O)N1CCOCC1	-14%	-12%
14	COC(=O)c1c(CSc2cccc(C)c2)noc1C(=O)NCc1ccco1	i	-22%
15	CCCCN(C)CC(O)Cn1cc(/C=C/C(=O)c2cccs2)c2ccccc21 (configuration not stated)	u	u
16	O=C1c2ccccc2C(=O)C1c1ccccc1	-17%	-9%&-12%
17	Cc1ccc(C)c(N(C(=O)c2snc(C(N)=O)c2N)C(C(=O)NCC2CCCO2)c2ccc(C)o2)c1 (configuration not stated)	-17%	-13%
18	COc1ccccc1-c1n[nH]c(=S)o1	-2%	0%
19	COc1cc(NC(=O)N2CCN(c3cc(-c4noc(C)n4)ccc3C)CC2)cc(OC)c1OC	-14%	-17%
20	Brc1cccc(-c2nnc3sc(CNC4CCCC4)cn23)c1	10%	9%
21	CC(C)COc1ccc(C(=O)N(Cc2ccco2)C2CCS(=O)(=O)C2)cc1 (configuration not stated)	-9%	-10%
22	COc1ccccc1CNC(=O)CCC1N=C2c3ccccc3N=C(SCC(=O)Nc3ccc(F)cc3)N2C1=O (configuration not stated)	i	-19%
23	COc1ccc(-c2ccc(C(=O)NCC3CC3)c3occc23)c(C)c1	6%	-22%
24	CCOc1ccc(-n2cc(-c3ccccc3)c3c(SC(C)C(=O)OC)ncnc32)cc1 (configuration not stated)	-12%	-9%
25	Cc1ccc(C)c(C(=O)Nc2ccncc2)c1	i	-11%
26	O=S1(=O)c2ccccc2N(Cc2cccc(F)c2)c2ccccc21	-16%	-13%
27	O=C(CSc1nnc(-c2ccncc2)n1Cc1ccco1)Nc1nc(-c2ccccc2)cs1	-10%	-30%
28	O=C(CSc1nnnn1-c1ccccc1)N1CCCc2ccccc21	-15%	-14%
29	COC(=O)Nc1ccc(S(=O)(=O)N2c3ccccc3CCC2C)cc1 (configuration not stated)	u	u
30	O=C(Nc1ccc(Cl)cc1)C1CC(=O)n2c(nc3ccccc32)N1 (configuration not stated)	2%	3%
31	COc1ccc(C(CCNCc2ccc(OC(C)C)cc2)C(C)C)cc1 (configuration not stated)	-14%	-14%
32	O=C(CCNc1n[nH]c(=O)[nH]c1=O)N/N=C/c1ccc(C(F)(F)F)cc1	-10%	-21%
33	COC(=O)Cn1c(=O)c(=O)n(CC(=O)OC)c2ccccc21	-3%	-3%
34	Cc1cccc(-c2nc3cc(NC(=O)C4CCCO4)ccc3o2)c1 (configuration not stated)	i	-12%
35	Cc1ccc(N(CC(=O)NCc2ccc(F)cc2)C(=O)c2ccco2)cc1C	-16%	-19%
36	O=C(Nc1ccccc1N1CCCC1)C1CCN(S(=O)(=O)c2ccc(F)cc2)CC1	-1%	-1%
37	COc1ccccc1-c1cc(C(F)(F)F)nc(S(=O)(=O)CCCC(=O)Nc2ccc(F)c(Cl)c2)n1	4%	5%
38	COc1cc(NC(=O)CCc2c(C)nn(-c3ccc(N4CCOCC4)nn3)c2C)cc(OC)c1OC	-14%&-9%	3%&3%
39	Cc1nnc(NC(=O)CSCc2cc(=O)c3ccccc3[nH]2)s1	-2%	-7%
40	Cn1nc(C(=O)Nc2ccc(S(=O)(=O)N3CCCC3)cc2)ccc1=O	i	-10%
41	COC(=O)c1ccc(COc2cc([N+](=O)[O-])cc3cccnc23)cc1	i[7.34 µM]	0%[7.34 µM]
42	CCn1c(=O)c2cc(C(=O)N(C)c3cc(Cl)c(OC)cc3OC)sc2c2ccccc21	-15%	-16%
43	O=C(Nc1ccccc1)N(CCN1CCOCC1)Cc1ccccc1F	x	-1%
44	CCS(=O)(=O)N1CCCC(C(=O)NCC2CCCO2)C1 (configuration not stated)	-6%	3%
45	CCCn1nnnc1NCc1ccc(OC)cc1OC	-16%	4%
46	CC(C)CC(=O)NCCCCc1ccccc1	-14%	-16%
47	O=C(c1ccccc1S(=O)(=O)NCC(O)COc1ccc([N+](=O)[O-])cc1)N1CCCCC1 (configuration not stated)	x	-15%
48	O=C(O)CCCCOn1ccnc1	i	-16%
49	CCOc1ccc(N2CC(c3nc4ccccc4n3CCCOc3ccc(OC)cc3)CC2=O)cc1 (configuration not stated)	-15%	-6%
50	O=[N+]([O-])c1ccc(N2CCSCC2)cc1	i	-4%

(list continues)
no.	Molecule	Vaccinia mCherry	Vaccinia Venus
51	COc1cccc(/C=N/NC(=O)c2nnn(-c3nonc3N)c2C(C)C)c1OCc1ccc(F)cc1	u	-23%
52	COc1cccc(NC(=O)CN(C)CC(=O)Nc2ccc(Br)cc2)c1	-2%	-14%
53	Cc1ccnc(NC(=O)c2ccc3c(c2)C(=O)N(CC2CCCO2)C3=O)c1 (configuration not stated)	-1%	-2%
54	Cc1ccc(NC2=C/C(=N/S(=O)(=O)c3cccs3)c3ccccc3C2=O)cc1C	i	-12%
55	CCN(CC)S(=O)(=O)c1ccc(-c2nnc(SCC(=O)N3c4ccccc4CC3C)n2CC)cc1 (configuration not stated)	-19%	-11%
56	c1ccc(C2(N3CCCCC3)CCCCC2)cc1	-1%	-14%
57	CN1CCN(/N=C/c2nc(-c3ccccc3Cl)n3ccccc23)CC1	-21%	-24%
58	COC(=O)c1cc[n+](CC(=O)c2ccccc2)cc1	x	-12%
59	Cc1cc(C)c2cc(CN(CCO)C(=O)Nc3ccc(F)cc3)c(=O)[nH]c2c1	11%	4%
60	CN(Cc1cnn(-c2ccc(F)cc2)c1)C(=O)[C@H]1O[C@@H](n2cnc3c(N)ncnc32)[C@H](O)[C@@H]1O	12%	-2%
61	CN(CCN(C)c1nc(-c2cccs2)nc2ccccc12)C(=O)OC(C)(C)C	-20%	-9%
62	COc1ccc(OCC(=O)Nc2ccc(S(=O)(=O)N(C)c3ccccc3)cc2)cc1	-24%	-5%
63	O=C(COC(=O)c1ccccc1)c1ccc2c(c1)OCCO2	-12%	-8%
64	COC(=O)CN1C(=O)CSc2ccc(S(=O)(=O)Nc3ccccc3)cc21	-12%	-11%
65	O=c1cc[nH]c(=S)[nH]1	-12%	-8%
66	CCc1ccc(NC(=O)C(=O)NNC(=O)c2cccc(OC)c2)cc1	-22%	0%
67	Cc1cc(C)nc(N=Nc2c(O)n(Cc3ccc(Cl)cc3)c3ccccc23)n1	-28%	-21%
68	COc1cccc(NC(=O)CN(C)C(=O)CSC(=S)N2CCCC2)c1	-20%	-13%
69	C(=Nn1cnnc1)c1ccc2c(c1)CCC2	i	-3%
70	Cc1cc(C(C#N)c2ccccc2)n2ncnc2n1 (configuration not stated)	-16%	-18%
71	CSCCC(c1nnnn1C1CCCCC1)N1CCC2(CC1)C(=O)NCN2c1ccccc1 (configuration not stated)	i	-4%
72	O=S(=O)(NCCc1ccncc1)c1cc(Br)ccc1F	-23%	-12%
73	CCOc1ccc(Nc2c3ccccc3nc3ccccc23)cc1	5.6µM*	u
74	Cc1ccc(Cl)cc1-n1nnc(-c2nsc(NC(=O)c3ccccc3Cl)n2)c1C	-11%	-17%
75	Cc1ccc(C)c(NC(=O)NCc2ccc3c(c2)CCN3C(=O)c2ccccc2)c1	-18%	-8%
76	C/C(=N/NC(=O)c1cc(C)[nH]n1)c1ccncc1	-21%	1%
77	Cc1ccc(-c2nn(Cc3ccccc3)cc2/C=C/C(=O)O)cc1	-13%	-4%
78	c1ncc(CC2CCNCC2)[nH]1	i	-10%
79	O=C(c1cc(-c2ccccc2)n[nH]1)N1CCc2c([nH]c3ccccc23)C1c1ccccn1 (configuration not stated)	u	u
80	CCOC(=O)C(CCCCCOc1ccccc1[N+](=O)[O-])C(=O)OCC	-13%	-7%
81	Cn1c(C(=O)NCc2ccc(F)cc2)cc2cc(S(=O)(=O)N3CCCCC3)ccc21	u	u
82	CCOc1ccccc1CN1CCN(C2CCSCC2)CC1CCO (configuration not stated)	i	-6%
83	O=C(NC(=O)c1ccccc1F)OCc1ccc(Cl)cc1Cl	0%	-14%
84	O=C(C=Cc1ccccn1)c1ccccc1O	-6%	2%
85	CC1CCCC(C)N1C(=O)c1ccc(S(=O)(=O)NCc2ccco2)cc1 (configuration not stated)	-13%	0%
86	CC(=O)N1CCc2c(sc3c2c(=O)n(Cc2ccccc2)c(=O)n3CC(=O)Nc2ccc(C)c(F)c2)C1	-10%	-8%
87	CC1(C(=O)NS(=O)(=O)c2ccc(F)cc2F)CCN1C(=O)c1ccccc1 (configuration not stated)	-5%	-24%
88	Cc1ncc(C(=O)Nc2ccccc2)[nH]1	-12%	2%
89	Cc1nc(-c2ccc(S(=O)(=O)NCc3ccc(OC(C)C)cc3)cc2)co1	-4%	-3%
90	COc1ccc(S(=O)(=O)Nc2cccc3c2O[C@H](CN(C)S(=O)(=O)c2cccs2)[C@@H](C)CN([C@H](C)CO)C3=O)cc1	i	-18%
91	CCOC(=O)C1(CCOc2ccccc2)CCN(Cc2ccc(-n3cccn3)cc2)CC1	u	u
92	COc1ccc(N(Cc2cccs2)C(=O)Nc2cccc(Cl)c2)cc1	-5%	-8%
93	COc1ccc(C2CC(=O)Nc3cc4c(cc32)OCO4)c(OC)c1 (configuration not stated)	-29%	u
94	O=C(CSc1ccccc1)Nc1nnc(-c2ccco2)o1	i	-6%
95	CCOc1ccccc1NC(=O)CSc1nc(=O)n(CCCN2CCOCC2)c2c1CCCC2	-5%	-13%
96	CCOc1ccccc1-n1nnnc1SCC(=O)O	-17%	-13%
97	O=C(CSc1ncccn1)n1c2c(c3ccccc31)CCCC2	i	-11%
98	Cc1ccc2nc(-c3ccc(NC(=O)CN4CCN(C(=O)c5ccco5)CC4)cc3)sc2c1	-10%	u
99	Cc1ccccc1C(=O)c1cccn1CC(=O)NCCC1=CCCCC1	13%	9%
100	CC1(Cc2ccc(Cl)cc2)C(=O)Nc2ccc(S(=O)(=O)NC3CCCCC3)cc21 (configuration not stated)	8%	-26%

The list continues:
no.	Molecule	Vaccinia mCherry	Vaccinia Venus
101	O=C(O)C1CCN(c2ncccn2)CC1	x	-19%
102	CC(=O)CSc1ccc(-c2nc3ccccc3[nH]2)cn1	-15%	-18%
103	CCN(Cc1ccccc1)C(=O)c1cccc(S(=O)(=O)N2CCN(c3ccc(F)cc3)CC2)c1	-16%	-25%
104	COCCn1c(C)cc(C(=O)COC(=O)C2CC(=O)N(CCc3ccc(OC)c(OC)c3)C2)c1C (configuration not stated)	-11%	-11%
105	O=C(Cc1ccc(Br)cc1)NCCc1ccc(F)cc1	-16%	-12%
106	Cc1c(N2C(=O)/C(=C\c3ccccc3O)SC2=S)c(=O)n(-c2ccccc2)n1C	8%[7.34 µM]	22%[7.34 µM]
107	COc1cc(/C(C)=N/NC(=S)NC(C)C)cc(OC)c1OC	-25%	-25%
108	CC1CN(Cc2cc(=O)n3ccsc3n2)CC(C)O1 (configuration not stated)	-3%	5%
109	O=S(=O)(c1ccccc1)N1CCN(S(=O)(=O)c2ccccc2)C1	i	0%
110	COc1cccc(N2CCN(C(=O)/C=C/c3ccco3)CC2)c1	-21%	-4%
111	COCC(=O)Nc1cc(C(=O)N2CCCC(C(N)=O)C2)cc2nc(-c3ccccc3)n(C)c12 (configuration not stated)	-14%	-6%
112	CC[C@H](C)C(=O)O[C@H]1C[C@H](O)C=C2C=C[C@H](C)[C@H](CC[C@@H](O)C[C@@H](O)CC(=O)O)[C@H]21	i	-9%

Screens (PubChem)

The order is random; any-hit rate near 0.86%.
